KCNQ2 pot: KCNQ2 (rat) channel potentiation; 0.54% of 310,000 active; B-score at 10 µM; CHO-K1 KCNQ2, FluxOR thallium flux fluorescence; stronger effect = higher value;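 active = fluorescence ratio B-score at least 3 SD of library B-scores, with initial fluorescence B-score within 3 SD, cut at about 5.3 in these data; same plate scores as AID 2156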;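 also: B-score of peak minus minimum over baseline fluorescence ratio after K+ and Tl+ stimulus; positive B-score means potentiation of KCNQ2 with more thallium influx and brighter signal; only the inactives scoring about 0 or higher are listed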
Target sequence (O88943 whole entry, looked up): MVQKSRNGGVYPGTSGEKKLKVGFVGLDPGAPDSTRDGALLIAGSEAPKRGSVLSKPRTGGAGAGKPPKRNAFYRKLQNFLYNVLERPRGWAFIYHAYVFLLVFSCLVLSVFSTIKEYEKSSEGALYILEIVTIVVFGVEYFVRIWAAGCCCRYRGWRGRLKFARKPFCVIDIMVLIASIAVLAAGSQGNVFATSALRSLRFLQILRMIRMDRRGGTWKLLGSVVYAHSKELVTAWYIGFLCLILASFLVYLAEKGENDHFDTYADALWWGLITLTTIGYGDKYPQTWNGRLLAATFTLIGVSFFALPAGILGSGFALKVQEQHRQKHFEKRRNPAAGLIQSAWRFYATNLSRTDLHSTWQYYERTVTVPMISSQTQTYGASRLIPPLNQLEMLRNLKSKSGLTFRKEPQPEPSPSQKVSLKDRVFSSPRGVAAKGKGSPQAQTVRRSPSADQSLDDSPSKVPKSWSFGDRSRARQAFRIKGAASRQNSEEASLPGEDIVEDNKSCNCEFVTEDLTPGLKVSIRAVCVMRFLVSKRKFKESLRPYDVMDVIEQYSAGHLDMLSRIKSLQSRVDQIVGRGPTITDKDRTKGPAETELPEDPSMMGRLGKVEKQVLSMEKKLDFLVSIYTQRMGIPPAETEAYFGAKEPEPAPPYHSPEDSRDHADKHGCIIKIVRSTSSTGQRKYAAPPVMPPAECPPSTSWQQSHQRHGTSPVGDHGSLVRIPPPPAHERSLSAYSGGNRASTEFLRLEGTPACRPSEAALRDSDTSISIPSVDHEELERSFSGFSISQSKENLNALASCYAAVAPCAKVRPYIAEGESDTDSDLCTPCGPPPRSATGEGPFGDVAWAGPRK
KCNQ2 pot baseline: second read-out of KCNQ2 pot, no call of its own (marks repeat the call); B-score; compound at 10 µM; measured here: initial fluorescence intensity artifact check;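 brightness before thallium and not channel activity; 0 = typical well and far values either way flag optical interference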
* marks the source's active call; other numbers are inactive results. Only part of the results is shown, so the mix of outcomes need not match the whole.

KCNQ2 pot baseline	KCNQ2 pot	Structure
-2.1	1.2	CCOC(=O)C1=C(c2cccc(F)c2)NC(=S)NC1C (stereo not given)
-0.36	0.1	Cc1ccc(-c2nnn(CC(=O)N(c3ccccc3)C(C(=O)NC(C)(C)C)c3cccs3)n2)o1 (stereo not given)
0.06	0.6	Cc1ccc(/C=N/NC(=O)c2nnn(-c3nonc3N)c2C(C)C)o1
-0.07	0.64	COc1ccc(CNC(=O)c2cc(S(=O)(=O)N3CCOCC3)cn2C)cc1
-0.85	0.78	CCN(CC)C(=O)C(=O)Nc1ccc(Oc2ccccc2)cc1
-0.39	1.3	Cc1ccc(N2C(=O)C3CC(c4ccccc4)=C4C5C=CC(C6C(=O)N(c7ccc(C)cc7C)C(=O)C56)C4C3C2=O)c(C)c1 (stereo not given)
-0.32	2.5	O=C(CCC1CCCN(C(=O)c2ccc3c(c2)OCO3)C1)N1CCN(c2ccccn2)CC1 (stereo not given)
0.32	0.7	CC(C)(C)C1CCC(OC(=O)CN2CCOCC2)CC1 (stereo not given)
-0.82	1.6	Cc1nn(C(=O)CCC(=O)NCc2ccc(OC(C)C)cc2)c2ccccc12
-1.5	0.02	COc1cc(-c2nn3c(C4CCCCC4)nnc3s2)cc(OC)c1OC
1.2	0.36	O=[N+]([O-])c1ccc(N2CCNCC2)cc1NCc1cccnc1
-1.9	1.1	Cc1ccc2[nH]c(=O)c(CN(Cc3nnnn3C3CCCC3)C3CCCCC3)cc2c1

In another format: 5 of the compounds above.
| structure | KCNQ2 pot baseline | KCNQ2 pot |
| --- | --- | --- |
| Cc1ccc(N2C(=O)C3CC(c4ccccc4)=C4C5C=CC(C6C(=O)N(c7ccc(C)cc7C)C(=O)C56)C4C3C2=O)c(C)c1 (stereo not given) | -0.39 | 1.3 |
| O=C(CCC1CCCN(C(=O)c2ccc3c(c2)OCO3)C1)N1CCN(c2ccccn2)CC1 (stereo not given) | -0.32 | 2.5 |
| CC(C)(C)C1CCC(OC(=O)CN2CCOCC2)CC1 (stereo not given) | 0.32 | 0.7 |
| Cc1nn(C(=O)CCC(=O)NCc2ccc(OC(C)C)cc2)c2ccccc12 | -0.82 | 1.6 |
| COc1cc(-c2nn3c(C4CCCCC4)nnc3s2)cc(OC)c1OC | -1.5 | 0.02 |

Next compounds:
KCNQ2 pot baseline	KCNQ2 pot	Structure
0.03	0.44	CC(C)C[C@H](NC(=O)c1cc2cc(Cl)ccc2n1C)C(=O)N1CCC(C(=O)O)CC1
0.78	1.9	CC1CCN(S(=O)(=O)c2ccc(NC(=O)CN3CCN(C)CC3)cc2)CC1
-0.57	2.6	CCN(c1cc(C)cc(C)c1)S(=O)(=O)c1nnc(NC(=O)c2ccco2)s1
-0.96	0.9	COc1ccc(N/C=C\C(=O)c2ccc3c(c2)OCO3)cc1OC
0.74	1.4	COc1ccc(/C=N/N=C2/NC(=O)C(CC(=O)O)S2)cc1OCc1ccc(Cl)cc1Cl (stereo not given)
0.95	0.59	COc1ccc(CC(NC(C)=O)C(=O)NC2CCN(C(=O)C3CC3)CC2)cc1OC (stereo not given)
-0.21	0.93	Cc1nnc2ccc(N3CCN(c4ccccn4)CC3)nn12
0.6	1.1	CN(C(=O)CO/N=C/c1ccc(OC(F)F)cc1)C1CCS(=O)(=O)C1 (stereo not given)
1.3	0.45	O=C(NCc1ccco1)c1nc2ncccn2n1
0.24	1.4	COc1ccc(/C(O)=C2/C(=O)C(=O)N(CCCN(C)C)C2c2ccc(Cl)cc2)cc1OC (stereo not given)
-0.35	1.2	Cc1ccccc1NS(=O)(=O)c1cc(C(=O)N2CCCC2)ccc1C
0.29	0.12	O=C(NCc1ccco1)c1ccc(Oc2ccccc2)cc1

Six records picked at random from those above, as already listed:
KCNQ2 pot baseline	KCNQ2 pot	Structure
0.74	1.4	COc1ccc(/C=N/N=C2/NC(=O)C(CC(=O)O)S2)cc1OCc1ccc(Cl)cc1Cl (stereo not given)
1.3	0.45	O=C(NCc1ccco1)c1nc2ncccn2n1
-0.21	0.93	Cc1nnc2ccc(N3CCN(c4ccccn4)CC3)nn12
0.78	1.9	CC1CCN(S(=O)(=O)c2ccc(NC(=O)CN3CCN(C)CC3)cc2)CC1
-0.57	2.6	CCN(c1cc(C)cc(C)c1)S(=O)(=O)c1nnc(NC(=O)c2ccco2)s1
0.95	0.59	COc1ccc(CC(NC(C)=O)C(=O)NC2CCN(C(=O)C3CC3)CC2)cc1OC (stereo not given)

Remaining list, next part.
KCNQ2 pot baseline	KCNQ2 pot	Structure
0.57	0.14	Cc1ccc(NC(=O)COc2ccc(S(=O)(=O)N3CCOCC3)cc2)cc1
-0.44	0.25	Cc1ccc(N2CCN(C(=O)c3cccs3)CC2)c(C)c1
0.35	0.9	Cc1ccc(CCC(=O)Nc2ccc([N+](=O)[O-])cc2Cl)o1
-1.9	0.14	O=C(CCN1CCN(Cc2ccccc2)CC1)Nc1ccc(OCc2ccccc2)cc1
-0.42	0.61	O=C(Nc1nccs1)c1ccccc1Br
-0.06	0.2	CC1(C)CC(=O)C=C(NCCO)C1
-1.6	0.81	CCOC(=O)C1=C(COC(=O)COc2ccc(OCC)cc2)NC(=O)NC1C (stereo not given)
-0.12	0.18	O=C(N/N=C/c1cccnc1)c1ccccc1[N+](=O)[O-]
0.28	0.41	COc1ccc(Nc2nc(Cl)nc(NCc3ccco3)n2)cc1
-1.4	0.16	CCOC(=O)c1c(NC(=O)Cn2cnc3sc(C)c(-c4ccccc4)c3c2=O)sc(C)c1C
0.36	0.06	COc1ccccc1NS(=O)(=O)c1cc(C(=O)NCC(c2ccco2)N(C)C)ccc1C (stereo not given)
0.05	1	CCCCNC(=O)c1cn(CC)c2cc(N3CCN(C)CC3)c(F)cc2c1=O
0.56	0.05	O=C(Nc1ccc(Br)cc1)Nc1cnccn1
0.58	0.18	Brc1ccc(-c2nnc3sc(CNC4CCCC4)cn23)cc1
-0.22	0.13	O=C(c1ccco1)N1CCn2cccc2C1c1ccccc1 (stereo not given)
0.01	2	Cn1sc(NC(=O)c2ccc(Cl)cc2)nc1=O
-1.7	0.22	CCc1ccc2[nH]c3nc(SCc4nnc(-c5ccccc5)o4)nnc3c2c1
-0.35	0.28	CC1(C)CC(=O)C(C(c2cccnc2)C2C(=O)CC(C)(C)CC2=O)C(=O)C1
-0.02	0.35	CCOc1cccc(-c2nnc3sc(-c4cccs4)nn23)c1
-0.04	0.19	CCC(C)[C@H](N)C(=O)NC[C@H]1CC[C@H](C(=O)N[C@@H](Cc2ccccc2)C(=O)O)CC1 (stereo not given in full)
-0.09	0.01	Cc1ccc(-n2c(C)nnc2SCC(=O)N2CCc3ccccc3C2)cc1C
-0.71	0.51	O=C(c1n[nH]c2ccccc12)N1CCN(c2ccc(F)cc2)CC1
0	0.17	CC(C)Oc1ccc(C(=O)Nc2ccc(N3CCCC3)cc2)cc1
0	0.2	CCCCCCC1CC(=O)NC(=O)N1 (stereo not given)
-0.41	1.1	Cc1cc(C(=O)N2CCCC(C(=O)c3cccc(C(F)(F)F)c3)C2)n[nH]1 (stereo not given)
0.18	0.02	Cc1ccc2c(c1)N(CC(=O)N1CCCCC1)C(=O)CO2
0.41	0.39	Cc1onc(C(=O)N2CCN(c3ccccc3)CC2)c1[N+](=O)[O-]
-1	0.45	O=C(COc1ccc(S(=O)(=O)NCCc2ccccc2)cc1)N1CCCC1
-1.9	0.88	CC(Oc1ccc(NC(=O)c2ccco2)cc1)C(=O)N1c2ccccc2CC1C (stereo not given)
0.95	0.08	COc1ccccc1CC(=O)Nc1ccc(C(=O)N2CCCCC2)cc1
0.04	1.5	O=C(c1ccc2c(c1)OCO2)N1CCN(S(=O)(=O)c2ccc(Cl)cc2)CC1
-1.9	1.2	O=C(CSc1nc2c(c(=O)n1-c1ccc(F)cc1)SCC2)N1CCCC1
-0.17	2.1	NC(=O)NNc1ncc(C(F)(F)F)cc1Cl
0.48	3.6	CCN(CC)CCNC(=O)c1cn(CC)c2ccc(S(=O)(=O)N(C)C)cc2c1=O
1.6	0.03	CC(C(=O)NCc1ccco1)c1ccc([N+](=O)[O-])cc1 (stereo not given)
0.38	0.11	C=CCN(CC=C)CCOc1ccccc1[N+](=O)[O-]
-2.4	0.76	CCc1[nH]nc(C(=O)N2CCCC(Nc3cccc(F)c3)C2)c1C (stereo not given)
1.8	0.31	Cc1ccc(S(=O)(=O)N2CCCC2c2nc3ccccc3s2)cc1 (stereo not given)
1.3	0.7	Cc1cc2c(ncn2C(C)C)c(N)c1C
-1.8	1.5	Cc1cc(N2CCOCC2)nc(N2CCOCC2)n1
0.05	1.8	O=C(CN1CCCCCC1)Nc1cccc2c1OCO2
-0.04	2.3	O=C(CNC(=O)c1cccs1)N/N=C/c1ccccc1[N+](=O)[O-]
1	0.3	COc1ccc2c(c1)[nH]c1c(=O)n(/N=C/C3C(C)C=C(C)CC3C)c(=O)[nH]c12 (stereo not given)
-2.1	2.8	COCCOC(=O)/C(=C\c1cc(C(C)(C)C)c(O)c(C(C)(C)C)c1)C(C)=O
0.55	2.5	O=C(CCN1C(=O)c2ccccc2S1(=O)=O)Nc1ccccc1
-0.32	1.3	CCCCNC(=O)c1onc(CSc2ccncc2)c1C(=O)NCCCC
-0.42	0.2	COc1ccc(NC(=O)COc2ccc3oc(=O)cc(C)c3c2)cc1
0	0.15	Cc1cc(NS(=O)(=O)c2ccc(N)cc2)no1
-0.73	0.89	COc1ccc(/C=N/NC(=O)CSCC(=O)Nc2ccccc2)cc1OC
-0.86	0.27	C=CCNC(=O)c1oc2ccc(S(=O)(=O)N3CCCCC3)cc2c1C
-0.18	1.3	COc1ccc(-c2cn3ccccc3n2)cc1OC
-1.2	1.2	CCc1cccc2sc(NC(=O)c3ccc(N4C(=O)CCC4=O)cc3)nc12
-0.02	1.3	S=C(Nc1ccc(Oc2ccccc2)cc1)N1CCN(c2ccccn2)CC1
-0.44	1.5	CC(O)/C=C/c1cccc[n+]1C (stereo not given)
-1.4	0.65	O=P(COCCO)(c1ccccc1)c1ccccc1
-0.86	0.04	O=[N+]([O-])c1ccc(Sc2n[nH]c(-c3ccncc3)n2)nc1
-1.7	1.2	C=CCNC(=O)CN1CCC(O)(c2ccc(F)cc2)CC1
-0.29	0.2	COc1ccc(Nc2ncc(F)c(N3CCOCC3)n2)cc1
0.84	0.86	O=C(O)c1ccccc1Sc1ccccc1S(=O)(=O)NC1CCCCC1
-0.7	0.31	CCOc1ccc(S(=O)(=O)Nc2ncn[nH]2)cc1

(list continues)
KCNQ2 pot baseline	KCNQ2 pot	Structure
-1.4	0.02	CC(C)Sc1cc(Cl)nc(NC(=O)Nc2ccccc2)n1
-2.2	2.3	O=C(CSc1nnc(NC(=O)c2cc(Br)ccc2Cl)s1)NCC1CCCO1 (stereo not given)
-0.09	0.57	COc1cc(SC)ccc1C(=O)NCCCOC(C)C
-0.94	0.89	NS(=O)(=O)c1ccc(N=Cc2ccc(Br)s2)cc1
-3	0.32	C/C(=N\Nc1ccc2nncn2n1)c1ccc(Br)s1
-1.8	1.1	C[C@@H]1O[C@@H](OC[C@H]2O[C@@H](Oc3c(-c4ccc(O)cc4)oc4cc(O)cc(O)c4c3=O)[C@H](O)[C@@H](O)[C@@H]2O)[C@H](O)[C@H](O)[C@H]1O
0.83	1.3	COc1ccc(N2CCN(C(=O)C3CCN(C(=O)c4ccccc4Cl)CC3)CC2)cc1
-0.78	0.05	CC(=O)c1cccc(NC(=O)CC2CCCC2)c1
0.36	0.31	COc1ccc(C(=O)NCC(=O)NCC(=O)OCC(=O)c2ccc(Br)cc2)cc1
0.81	1.4	CCOc1ccc2nc(SC3CC(=O)N(c4ccc(OC)cc4)C3=O)sc2c1 (stereo not given)
0.47	2.2	N#CC(C(=O)CCN1C(=O)C2CC=CCC2C1=O)c1nc2ccccc2[nH]1 (stereo not given)
0.32	0.11	COC(=O)c1ccc(S(=O)(=O)N2CCC(c3nc4ccccc4o3)CC2)cc1
-0.27	1.7	CCn1c(SCC(=O)c2[nH]c(C)c(C(C)=O)c2C)nnc1-c1ccccc1
0.13	0.01	O=S1(=O)N=C2CCCCCN2C(c2ccncc2)N1 (stereo not given)
0.72	0.03	CCCN1CCN(C(=O)C2CCN(S(=O)(=O)c3ccc4c(c3)NC(=O)C(C)S4)CC2)CC1 (stereo not given)
-0.08	1.2	O=C(Cn1nnc(-c2cccs2)n1)NCCc1ccccc1
-0.97	1.2	COc1ccccc1NC(=O)c1cc(S(=O)(=O)N2CCC3(CC2)OCCO3)ccc1F
-0.76	0.87	COc1ccc(NC(=O)CSc2nncn2C)c([N+](=O)[O-])c1
1.7	0.99	N/C(=N\OC(=O)c1ccc(Cl)cc1Cl)c1cccnc1
1	1.1	Cc1nnc(SCc2c(Cl)cccc2Cl)n(N)c1=O
1.1	1.3	COC(=O)CS(=O)(=O)c1ccc2c(c1)CC(=O)N2
-0.27	0.7	CCC(C)(C)NC(=O)C(c1ccc(C)cc1)N(CC1CCCO1)C(=O)c1csnn1 (stereo not given)
0.42	1.5	C/C(N)=C(/C#N)C(=O)COC(=O)c1cccc2ccccc12
-0.33	0.08	O=S1(=O)CCN2C(c3cccc4ccccc34)=CSC2=N1
-0.79	0.57	COc1ccccc1NC(=O)c1ccc2c(O)c(S(=O)(=O)c3ccccc3)c(=O)[nH]c2c1
-0.17	1.8	Cc1cc(Oc2ccccc2)nc(NCc2ccccc2)n1
-0.34	0.42	O=C(Nc1ccc2nn(-c3ccccc3)nc2c1)c1cccs1
-0.35	0.69	COc1cc(C(=O)n2nc(C)cc2C)ccc1O
-1.2	0.99	CCOc1ccccc1NC(=O)Cn1cnc2c(cnn2-c2ccc(C)c(C)c2)c1=O
1.5	0.2	O=C(NN1S(=O)(=O)c2ccccc2S1(=O)=O)c1ccc(Br)cc1
0.03	2	COC(=O)[C@@H](N)CS
-1.7	0.56	O=C(NCc1nnc(SCC(=O)N2CCc3ccccc32)o1)c1ccco1
-2.2	1.4	O=C(Nc1sc2c(c1C(=O)O)CCCCC2)c1cccnc1
-0.91	0.42	O=C(Nc1ccn(Cc2ccc(Cl)cc2)n1)c1ccc2c(c1)OCO2

Bioassay records (PubChem BioAssay)
